High-throughput results from PubChem.
MT1-MMP act inh = blockers of MT1-MMP proenzyme processing, primary screen, HT1080 RFP-PRO-GFP cells, GFP/RFP fluorescence. Matrix metalloproteinase-14 (Homo sapiens), P50281. GFP/RFP ratio fluorescence, overnight; percent of plate control window, DMSO zero. GFP/RFP ratio change, % at 20 µM. actives 0.061% (n = 360,000);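 active means GFP/RFP ratio change of at least 30% with cell ATP level not reduced by more than half and red fluorescence within 50% of control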; further: strong numbers were not always called active
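Assay system – RFP-PRO-GFP reporter HT1080 cells · Compound dosing – single dose of 20 µM compound, 1% DMSO final · Incubation – overnight compound exposure at 37 °C · Measure – GFP/RFP fluorescence ratio · Benchmarks – DMSO wells and RFP-L50D-GFP cells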
Yeast UUG start = modulators of yeast start codon fidelity, primary screen, whole organism, S. cerevisiae, single point, plate reader | S. cerevisiae UUG-firefly luciferase reporter, luminescence/redox ratio | activity score, % at 18.7 µM | actives 0.13% (n = 350,000);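 active means replicate mean at a twofold rise or more, about +100% in these data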;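 further: firefly luciferase made from a UUG start codon reports start codon fidelity; reporter light over untreated wells divided by growth signal over untreated wells; some hits fall short of that in this replicate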
PABP polyA inh = PABP poly(A) RNA binding inhibitors, primary screen, biochemical, fluorescence polarization, uHTS; inhibition, % at 35 µM; actives 1% (n = 290,000);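 active means 50% or more with normal probe brightness, or confirmed in later tests; inconclusive means above 50% with abnormal brightness, or retests that disagree; inactive means below 50% or failed in later tests; about a fifth of its hits are not listed in these tables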;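 further: calls also rest on retests at 20 µM and on dose response follow-up; controls were probe without protein and protein plus probe with vehicle; some compounds called inactive have numbers as strong as hits; many hits fall short of the cut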
Target sequence (P11940 whole entry, looked up): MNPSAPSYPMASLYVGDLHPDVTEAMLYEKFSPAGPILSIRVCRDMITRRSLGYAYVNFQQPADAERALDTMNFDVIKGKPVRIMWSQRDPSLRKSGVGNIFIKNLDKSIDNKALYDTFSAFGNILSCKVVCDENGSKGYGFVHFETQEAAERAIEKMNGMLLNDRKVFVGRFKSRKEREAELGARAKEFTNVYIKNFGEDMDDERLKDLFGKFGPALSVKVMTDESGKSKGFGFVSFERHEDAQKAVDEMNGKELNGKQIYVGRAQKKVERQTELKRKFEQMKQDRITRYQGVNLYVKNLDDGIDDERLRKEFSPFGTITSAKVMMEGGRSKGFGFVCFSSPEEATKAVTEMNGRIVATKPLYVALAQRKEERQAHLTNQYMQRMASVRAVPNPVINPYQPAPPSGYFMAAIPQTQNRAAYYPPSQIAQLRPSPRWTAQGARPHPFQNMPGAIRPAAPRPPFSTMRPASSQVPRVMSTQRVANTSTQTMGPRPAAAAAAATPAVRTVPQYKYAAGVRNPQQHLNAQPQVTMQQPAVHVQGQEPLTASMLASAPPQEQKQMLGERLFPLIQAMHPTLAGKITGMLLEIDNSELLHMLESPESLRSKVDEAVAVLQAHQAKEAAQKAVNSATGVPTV
Rce1 inh = yeast Rce1p protease inhibitors, primary screen, biochemical, fluorescence, cell-free homogeneous; CAAX prenyl protease 2 (Saccharomyces cerevisiae (strain ATCC 204508 / S288c)), Q03530; AID 2563, 2010; actives 0.27% (n = 290,000); yeast membranes, quenched prenylated peptide cleavage fluorescence; calls only;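 active means fall in fluorescence gain of 50% or more versus controls, with final raw signal at or below 3038400; inconclusive means same 50% fall but final raw signal above 3038400; inactive means fall in fluorescence gain under 50%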;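 further: plate controls were neutral control wells for no effect and wells lacking membranes for full effect; tested at 10 µM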
eIF4H FP inh = human eIF4H binding inhibitors, primary screen, translation initiation inhibitor project, biochemical, uHTS, fluorescence polarization; Eukaryotic translation initiation factor 4H (Homo sapiens), Q15056; eIF4H fluorescence polarization binding assay; inhibition, % at 35 µM; actives 0.94% (n = 290,000);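 active means 50% or more with normal probe brightness, or confirmed in later tests; inconclusive means above 50% with abnormal brightness, or retests that disagree; inactive means below 50% or failed in later tests; about a fifth of its hits are not listed in these tables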;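 further: calls also rest on retests at 20 µM and on dose response follow-up; 0% = protein and probe with vehicle and 100% = probe without protein; strong numbers were not always called active; many hits fall short of the cut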
HIV Env fusion = inhibitors of HIV-1 Env-driven cell-cell fusion, primary screen, HeLa-JRFL effector, CEM21 target cells, luciferase; inhibition, % at 12.3 µM; actives 1.1% (n = 360,000); AID 651610, 2012;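 active means mean replicate inhibition score of at least 50 and every replicate individually at or above 50; inconclusive means only one of the two criteria met; inactive means mean below 50 and not all replicates reaching 50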;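 further: 0% = plate neutral controls and 100% = maraviroc near 300 nM; one replicate is shown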
CSC inhib = cancer stem cell viability inhibitors, primary screen, luminescence; cancer stem cell-like cells viability; inhibition, % at 7.5 µM; actives 1.1% (n = 300,000); AID 2717, 2010;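 active means mean at 75% or more and at least half the replicates too; inconclusive means mean and replicates disagree; tested in HMLE shEcad cells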;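 further: 0% = median of negative and 100% = median of positive control wells; the first replicate is given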
eIF4H FP inh retest = recorded beside eIF4H FP inh, whose call it bears; inhibition, %; compound at 20 µM; confirmation average;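 mean of two retest wells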
PABP polyA inh retest = second read-out of PABP polyA inh, no call of its own (marks repeat the call); inhibition, %; compound at 20 µM; confirmation repeats;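 mean of two retest wells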
MT1-MMP act inh RFP = recorded beside MT1-MMP act inh, whose call it bears; RFP signal change, %; measured here: RFP expression control read;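 0 = vehicle wells; hits needed this value within 50% of zero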
* marks the source's active call; other numbers are inactive results; i = inactive; ? = inconclusive; · = not tested or not shown. The list is partial, so the mix of outcomes need not match the whole.

SMILES	MT1-MMP act inh	MT1-MMP act inh RFP	Yeast UUG start	PABP polyA inh	Rce1 inh	eIF4H FP inh	HIV Env fusion	CSC inhib	others
CCOC(=O)c1c(S(=O)(=O)N2CCCC(C(=O)Nc3ccc(C)cn3)C2)c(C)n(C)c1C (centres undefined)	2.9	2.2	-11.1	·	i	·	8.3	1.2
Cc1ccc(NS(=O)(=O)c2ccc3c(c2)CC(=O)N3)c(C)c1	2.6	4.7	-1.4	-1.0	i	-18.0	-7.0	-4.3
COc1cc(C(=O)NCc2cccc(Cl)c2)ccc1OCC(=O)N1CCOCC1	-1.0	5.2	·	·	i	·	-9.4	-11.3
CCN(CC)CCNC(=O)Cn1nc(Cc2ccncc2)c2ccccc2c1=O	-0.3	0.5	-3.9	2.7	i	-0.9	-12.3	-25.5
Cc1cccc(C)c1NC(=O)CNC(=O)CNC(=O)c1ccc2c(c1)OCO2	3.4	1.3	-15.6	·	i	·	-20.7	·
Cc1cc(N/N=C/c2cccc([N+](=O)[O-])c2)nc(-n2nc(C)cc2C)n1	0.3	-0.8	-23.5	6.7	i	-8.7	-10.2	29.5
Cc1c(OCC(=O)NCc2ccccn2)ccc2c(-c3ccccc3)cc(=O)oc12	0.4	-0.4	-2.1	-0.2	i	-5.5	·	6.6
Cc1cccc(C(C)C)c1NC(=O)Cc1ccc(S(=O)(=O)N2CCOCC2)s1	0.0	-0.2	·	·	i	·	-1.6	22.2
COc1ccc(S(=O)(=O)N(C)C)cc1NC(=O)COC(=O)c1nc2nccc(C)n2n1	-4.0	1.4	·	12.0	i	-4.5	10.1	-3.7
COc1ccc(CCN2CC(C(=O)Nc3ccc4c(c3)OCO4)CC2=O)cc1OC (centres undefined)	3.9	1.9	·	-11.7	i	3.2	1.3	-2.2
COc1ccc(CC(=O)N2CCN(C(=O)Cc3ccc(OC)c(OC)c3)CC2)cc1OC	4.6	-0.9	-5.6	·	·	·	-12.8	·
CC1(C)Cc2cccc(OCC(=O)NCCOc3ccccc3)c2O1	0.6	-1.0	-16.6	?	i	2.3	19.3	-11.9
O=C(Cn1nc(C(F)F)cc1C(F)F)NNC(=S)Nc1ccc(F)cc1	-2.2	-0.4	-27.5	-2.8	·	3.3	-26.4	-1.6
COc1ccc(-c2csc(C(O)c3ccccc3)n2)cc1 (centres undefined)	1.0	-6.3	-18.4	·	·	·	16.4	·
Cc1ccc(S(=O)(=O)N2CCN(C(=O)COC(=O)CCOc3cc(C)ccc3C)CC2)cc1	2.4	0.9	11.1	·	i	·	23.0	18.7
CC(OC(=O)c1nn(C)c(=O)c2ccccc12)C(=O)NCc1ccc2c(c1)OCO2 (centres undefined)	-2.4	3.6	-11.0	-8.8	i	-7.5	-4.3	-8.1
Cn1nnnc1NCc1ccccc1F	-1.4	-0.5	-17.0	0.2	i	3.1	-8.4	-3.6
CCSc1ncc(C#N)c(=O)[nH]1	1.8	8.3	-10.7	6.3	i	-9.2	·	-15.8
Cc1cc(C)cc(NC(=S)N(CCN(C)C)Cc2cccs2)c1	3.8	-0.8	-4.2	-0.6	i	-0.4	-0.8	-8.3
O=c1cc(CSc2n[nH]c(-c3ccncc3)n2)nc2sccn12	4.8	4.3	·	33.2	i	62.8*	16.0	4.6	eIF4H FP inh retest=68.6*;PABP polyA inh retest=20.5
COc1cc(/C=N/NC(=O)c2ccncc2)ccc1OCC(=O)Nc1cccc([N+](=O)[O-])c1	·	·	-10.7	8.1	i	12.4	-0.1	·
COc1ccc(-c2cc(C(F)(F)F)nc(SCC(N)=O)n2)cc1	1.9	-3.0	-1.8	-11.3	i	-5.3	·	8.3
c1ccc2sc(SCSc3nc4ccccc4s3)nc2c1	0.0	3.6	-9.2	4.6	i	-7.4	-24.1	37.5
Cc1oc(-c2ccccc2)nc1C(=O)N1CCN(c2ccc(F)cc2)CC1	5.1	5.8	-1.1	15.0	i	-2.0	1.8	-1.7
CC1CCCC(C)N1C(=O)COc1ccccc1F (centres undefined)	1.1	4.7	·	4.1	i	-5.4	-34.9	-8.3

Compounds shown so far containing two or more sulfur atoms, in the order listed:
SMILES	MT1-MMP act inh	MT1-MMP act inh RFP	Yeast UUG start	PABP polyA inh	Rce1 inh	eIF4H FP inh	HIV Env fusion	CSC inhib	others
Cc1cccc(C(C)C)c1NC(=O)Cc1ccc(S(=O)(=O)N2CCOCC2)s1	0.0	-0.2	·	·	i	·	-1.6	22.2
Cc1cc(C)cc(NC(=S)N(CCN(C)C)Cc2cccs2)c1	3.8	-0.8	-4.2	-0.6	i	-0.4	-0.8	-8.3
O=c1cc(CSc2n[nH]c(-c3ccncc3)n2)nc2sccn12	4.8	4.3	·	33.2	i	62.8*	16.0	4.6	eIF4H FP inh retest=68.6*;PABP polyA inh retest=20.5
c1ccc2sc(SCSc3nc4ccccc4s3)nc2c1	0.0	3.6	-9.2	4.6	i	-7.4	-24.1	37.5

The results go on.
SMILES	MT1-MMP act inh	MT1-MMP act inh RFP	Yeast UUG start	PABP polyA inh	Rce1 inh	eIF4H FP inh	HIV Env fusion	CSC inhib	others
Cc1ccc2nc3c(c(C(=O)OC4CCOC4=O)c2c1)CCCC3 (centres undefined)	1.8	3.4	-4.4	-8.4	i	-13.1	3.4	-3.8
COc1ccc(OC)c(C(=O)c2coc3ccc(O)c(CN(C)C)c23)c1	1.4	3.4	-3.5	14.5	i	-4.0	-0.8	-3.7
CCc1ccccc1NC(=O)C1CCN(S(=O)(=O)c2ccc(N3CCCC3=O)cc2)CC1	0.3	-0.1	-11.7	·	·	·	-20.7	·
Cc1nc(-c2ccc(C(=O)Nc3cccc(Br)c3)cc2)cs1	-4.5	-26.7	·	-10.6	i	-4.3	-145.3	·
CCOC(=O)c1c(NC(C)=O)sc(C(=O)NC2CCCC2)c1C	1.7	0.8	-2.6	44.5	i	-9.0	-9.7	-0.1
N#Cc1cn(CCCOc2ccccc2)c2ccccc12	-1.3	-6.3	-14.1	-15.3	·	-1.4	·	0.4
COc1ccc([C@@H]2[C@@H]3C(=O)N(C(C)(C)C)C(=O)[C@@H]3[C@]3(Cc4ccc(Cl)cc4)C(=O)N(c4cccc(F)c4)C(=O)N23)cc1	-0.1	-2.2	-15.9	·	·	·	106.6*	0.0
O=C(c1cccc(F)c1)N1CCCC(C(=O)N2CCCCCC2)C1 (centres undefined)	-0.1	1.8	-13.9	-9.7	i	-10.7	12.2	-12.1
O=C(NCc1ccccc1Cl)c1ccc(CS(=O)Cc2ccc(Cl)cc2)o1 (centres undefined)	0.1	-8.4	-4.4	-4.9	i	-7.8	4.6	-12.3
CCN1CCN(c2ncc(C(=O)Nc3ccccc3C(=O)OC)c3ccccc23)CC1	-13.1	-3.8	-2.9	-7.9	i	1.2	-17.8	-0.7
CCN1CCN(C(=O)Cn2nc(C)c3sc4ccccc4c3c2=O)CC1	-2.4	-1.4	-4.1	-2.8	i	-1.1	2.6	-12.9
CC1CCCC(C)N1C(=O)Cn1nnc(-c2ccccc2)n1 (centres undefined)	-3.2	0.0	-13.0	3.5	i	2.7	1.1	-13.7
N#CC1(c2ccccc2)CCC(=O)N1c1ccccc1 (centres undefined)	1.5	4.5	·	10.1	i	6.8	-7.1	-8.0
Cc1[nH]c2ccccc2c1-c1ccc(Cl)nn1	-1.0	2.2	·	-3.6	i	-6.2	-6.3	-10.2
COc1ccc(/C=N/OCC(=O)N=Nc2c(O)[nH]c3ccc(Br)cc23)cc1OC	-1.8	1.7	·	3.0	·	4.2	5.2	-9.9
CC(C)CC1CCCCC1OC(=O)C[N+]1(C)CCCCC1 (centres undefined)	-0.6	0.5	·	-4.7	i	26.0	17.0	-3.1
O=P(Cc1cc(Br)cc(Br)c1OCCO)(c1ccccc1)c1ccccc1	-5.0	-2.8	·	6.8	i	-1.9	6.7	3.8
CCCCN(C(=O)CCC(=O)Nc1cc(C)on1)C(C(=O)NC1CCCC1)c1ccc(OCC)cc1 (centres undefined)	3.6	2.3	8.7	7.2	i	-9.0	16.3	-9.3
CC(C)NC(=O)NC(=O)COC(=O)CCOc1ccccc1	2.7	3.9	-9.7	1.7	i	1.1	-58.4	-9.8
O=C(CSc1nnnn1-c1ccc(O)cc1)c1cc2ccccc2o1	-3.8	0.9	·	-7.1	i	0.9	-54.6	2.4
O=C(O)COc1ccccc1/C=C1\SC(=S)N(/N=C/c2ccccc2O)C1=O	4.6	3.1	-17.4	-6.4	i	20.0	-41.8	20.1
COc1cc(NC(=O)Cn2c(=O)n(-c3cccc(C)c3)c(=O)c3c(C)c(C)sc32)cc(OC)c1	-6.1	-3.6	·	-7.9	i	-5.8	·	4.7
CCCC(c1nnnn1C(C)(C)C)N1CCN(Cc2ccccc2)CC1 (centres undefined)	-4.1	-1.4	-12.4	-4.8	i	-2.5	11.9	-8.6
Fc1ccccc1NC(=S)NC1CCCC1	1.6	-4.0	-27.2	-8.9	i	-3.5	6.6	-5.7
Cc1nnsc1C(=O)Nc1ccc(Cl)cc1Cl	5.8	13.0	-20.4	-0.7	i	-9.1	-284.1	-10.7

(next part)
SMILES	MT1-MMP act inh	MT1-MMP act inh RFP	Yeast UUG start	PABP polyA inh	Rce1 inh	eIF4H FP inh	HIV Env fusion	CSC inhib	others
O=[N+]([O-])c1cccnc1Sc1ccc(Cl)cc1	3.5	3.1	-8.6	6.1	i	-15.1	-4.4	10.1
CSc1ccc(CNCc2ccco2)cc1	1.4	-0.2	-14.3	4.0	i	2.1	-40.5	-9.1
O=C(O)c1cccc(S(=O)(=O)NCC2CCCO2)c1 (centres undefined)	3.2	0.2	-3.3	4.5	i	1.1	-7.1	-10.2
COc1ccc(C(=O)COC(=O)c2c(C)noc2C)cc1Cl	0.3	-2.9	2.6	·	·	·	·	-17.4
CC1(C(=O)NS(C)(=O)=O)CCN1C(=O)CC(c1ccccc1)c1ccccc1 (centres undefined)	2.8	10.1	4.4	·	·	·	17.5	·
O=C(CNC(=O)c1ccccc1)OCc1nnc(-c2ccc(Cl)cc2)o1	1.1	6.7	-1.8	-16.4	i	-3.2	-2.1	-9.3
COc1ccc(CCN2CC(C(=O)NCc3nc4ccccc4n3C)CCC2=O)cc1 (centres undefined)	-1.4	-1.7	-24.5	-1.5	·	7.9	10.3	9.5
O=C1CC(c2ccccc2)CC(O)=C1C=NCC1CCCO1 (centres undefined)	2.7	3.8	-4.9	-7.4	i	-3.8	·	2.8
CCOC(=O)[C@H]1[C@H]2COc3ccc(C)cc3[C@@H]2N2C(=O)c3ccccc3NC(=O)[C@@]12C	1.4	-0.7	-9.1	·	·	·	-126.1	2.3
Cc1ccc(C(=O)NC(C)c2ccncc2)o1 (centres undefined)	-0.5	2.2	-16.8	0.4	i	-1.2	4.6	-2.4
CCC(=O)NC(O)C(=O)c1ccc(C)cc1 (centres undefined)	0.6	1.8	-16.4	13.0	i	11.4	-32.9	-1.1
CCC(OC(=O)c1nsc(Cl)c1Cl)C(=O)NCc1ccco1 (centres undefined)	-0.7	0.8	·	8.4	i	-5.1	-32.9	-13.0
Cc1nonc1OCCNCCNc1ccccc1[N+](=O)[O-]	2.0	5.4	1.9	-4.4	i	-1.2	11.6	8.3
